HNF4A DNA FP: change in binding of human HNF4 alpha to DNA; 0.3% of 360,000 active; HNF4a-FITC DNA binding, fluorescence polarization, 1 h; activity change, % at 10 µM; in the data active means activity change above about 30%, passing the limit was not always enough;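 further: controls were the assay level and a saturating level of protein; the project sought stronger binding though the title names inhibitors; some compounds called inactive have numbers as strong as hits; positive values seem to mean higher polarization but the record does not say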
Target sequence (P41235 whole entry, looked up): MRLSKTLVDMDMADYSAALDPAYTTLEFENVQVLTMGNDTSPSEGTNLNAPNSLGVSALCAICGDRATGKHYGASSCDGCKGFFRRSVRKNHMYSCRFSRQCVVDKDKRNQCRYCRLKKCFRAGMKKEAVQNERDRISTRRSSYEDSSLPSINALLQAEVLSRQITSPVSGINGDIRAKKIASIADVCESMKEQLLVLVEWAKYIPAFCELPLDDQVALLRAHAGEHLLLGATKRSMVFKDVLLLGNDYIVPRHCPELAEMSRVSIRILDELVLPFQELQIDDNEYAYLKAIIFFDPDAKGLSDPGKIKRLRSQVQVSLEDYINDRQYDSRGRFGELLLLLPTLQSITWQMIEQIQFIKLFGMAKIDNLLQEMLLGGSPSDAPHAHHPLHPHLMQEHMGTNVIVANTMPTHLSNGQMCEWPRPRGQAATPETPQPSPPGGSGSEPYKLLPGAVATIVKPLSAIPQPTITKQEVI
UCH37 inh: blocks the human deubiquitinase UCH37; purified proteasome/UCH37, Ub-AMC cleavage fluorescence; inhibition, % (test concentration not listed); 0.33% of 330,000 active; AID 588478;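 active means mean of two replicates above 20%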;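 further: 0% = compound-free wells with enzyme and 100% = wells lacking proteasome; stock transfer was 100 nL into about 20 µL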
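assay system = human UCH37 enzyme supplied as purified proteasome complex | amount = proteasome at 0.15 nM in the dispensed enzyme solution | schedule = 30 min compound-proteasome preincubation then 25 min substrate reaction, room temperature | measured by = fluorescence, ex 355 nm, em 460 nm | benchmarks = no-proteasome wells (full inhibition) and compound-free wells (no inhibition)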
LANA-H2A inh: blocks KSHV LANA binding to histone H2A/H2B; cell-free LANA-H2A/H2B peptide, fluorescence polarization; Q9QR71; AID 2629; inhibition, % (concentration not given with the values); 0.6% of 320,000 active; in the data active means inhibition mostly above about 10%, no sharp cut-off; inactive means mostly below about 6.7%;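 further: stock transfer was 7.5 nL into about 10 µL; 0% = median of vehicle wells and 100% = median of positive control wells; one replicate is shown; the record names a cut of 25% in any replicate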
B2AR ag: human beta-2 adrenergic receptor agonism by FAP. Am2.2-beta2AR cells, FAP receptor internalization, flow cytometry; reference of the scale not given here. 0.43% of 340,000 active. P07550. response, % (concentration not given with the values);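 active means response above a set limit, near 3 SD of response in nonfluorescent compounds, cut at about 42% in these data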;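 further: stock transfer was 100 nL into about 11 µL; a reference agonist was the positive control; negative values mostly stem from fluorescent compounds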
Target sequence (P07550 whole entry, looked up): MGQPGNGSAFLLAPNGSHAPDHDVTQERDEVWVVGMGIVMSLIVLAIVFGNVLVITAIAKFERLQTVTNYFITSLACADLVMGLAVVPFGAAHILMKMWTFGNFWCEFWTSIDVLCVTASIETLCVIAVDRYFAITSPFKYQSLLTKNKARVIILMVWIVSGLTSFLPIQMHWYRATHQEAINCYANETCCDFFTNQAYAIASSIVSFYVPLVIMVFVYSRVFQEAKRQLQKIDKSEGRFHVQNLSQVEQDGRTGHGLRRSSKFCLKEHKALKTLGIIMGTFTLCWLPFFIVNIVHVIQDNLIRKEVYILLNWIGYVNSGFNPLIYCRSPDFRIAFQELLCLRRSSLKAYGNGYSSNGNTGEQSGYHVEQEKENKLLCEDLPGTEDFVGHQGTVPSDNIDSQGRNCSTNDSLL
Ecoli growth: inhibitors of Escherichia coli growth; OD600, 23 h; stronger effect = lower value; OD600 absorbance (test concentration not listed); 0.21% of 330,000 active;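 active means OD600 absorbance below the run mean of sample wells minus 3.6 SD, in any replicate, cut at about 0.56 in these data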;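 further: stock transfer was 300 nL into about 60 µL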
FGF22 binding: binders of recombinant human FGF22 by thermal shift. Q9HCT0. 1.5% of 340,000 active. calls only at 9.99 µM. SYPRO orange fluorescence; percent of sucrose octasulfate shift, DMSO zero;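 active means melting point raised past a set limit in the mean and every replicate; inconclusive means no clear call; three in four hits are not shown here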
ALR inh: inhibitors of human sulfhydryl oxidase ALR. P55789. purified ALR, DTT oxidation, H2O2 HRP-luminol luminescence. inhibition, % (no concentration beside the values). 3.8% of 290,000 active. AID 485317;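 active means mean and each replicate at 75% or more; inconclusive means only one of the two met; inactive means neither met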;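 further: stock transfer was 7.5 nL into about 7.5 µL; 0% = neutral wells and 100% = wells with inactivated enzyme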
Target sequence (P55789 whole entry, looked up): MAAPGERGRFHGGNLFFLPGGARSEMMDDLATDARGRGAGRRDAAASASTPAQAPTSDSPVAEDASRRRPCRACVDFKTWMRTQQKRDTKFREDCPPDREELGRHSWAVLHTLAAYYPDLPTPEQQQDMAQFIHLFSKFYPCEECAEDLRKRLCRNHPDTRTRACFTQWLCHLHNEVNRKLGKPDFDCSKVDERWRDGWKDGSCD
An asterisk follows results filed as active; i = inactive; ? = inconclusive; nt = no result given; + = active, no number. An excerpt (hit frequency here may not be typical).

HNF4A DNA FP,UCH37 inh,LANA-H2A inh,B2AR ag,Ecoli growth,FGF22 binding,ALR inh,molecule
3.4,-0.9,2.3,10,0.68,nt,0,CCOC(=O)c1cc(NC(=O)c2cccnc2)cc(C(=O)OCC)c1
-4.0,0.9,0.6,6,0.68,nt,0,O=C1CC(c2ccccc2)CC(O)=C1C=NCCCN1CCOCC1 (centres undefined)
0.7,-6.1,0.1,0,0.76,nt,0,CC1(C)CC(NC(=O)CC2CCCCC2)CC(C)(C)N1
-1.0,3.6,1.9,-8,0.66,nt,-18,O=C(CN1CCCC1)NCC12CC3CC(CC(C3)C1)C2
-1.8,7.0,0.5,-9,0.54,nt,-3,Cc1ccc(NC(=O)Nc2ccccc2)cc1[N+](=O)[O-]
-1.1,-0.9,-0.9,-3,0.69,i,25,C=C(c1ccccc1)c1ccc(N(C)C)cc1
-2.6,-7.6,-0.6,-4,0.69,nt,4,CC(C)c1nc(CNC(=O)CC2C(=O)NCCN2Cc2ccc(F)cc2Cl)cs1 (centres undefined)
-2.1,1.3,4.2,3,0.71,nt,-17,COc1ccc(OCCCNCCc2ccccc2)cc1
13,3.5,-3.1,-37,0.67,i,-5,CC1(c2ccc3c(c2)OCCO3)NC(=O)N(CC(=O)Nc2ccccc2SCC#N)C1=O (centres undefined)
0.3,2.5,-1.5,-17,0.68,i,39,COc1ccc(N2CCN(S(=O)(=O)c3ccc4c(c3)NC(=O)CC(=O)N4)CC2)cc1
5.4,nt,5.4,2,nt,i,-20,CC(=O)Nc1nn(C)c2nc3ccc(C)cc3cc12
-0.5,0.6,1.0,0,nt,i,nt,CCOC(=O)[C@H]1[C@H]2COc3ccccc3[C@@H]2N2C(=O)c3cc(OC)c(OC)cc3NC(=O)[C@@]12C

In a second layout: results already given
SMILES | HNF4A DNA FP | UCH37 inh | LANA-H2A inh | B2AR ag | Ecoli growth | FGF22 binding | ALR inh
CC1(c2ccc3c(c2)OCCO3)NC(=O)N(CC(=O)Nc2ccccc2SCC#N)C1=O (centres undefined) | 13 | 3.5 | -3.1 | -37 | 0.67 | i | -5
COc1ccc(N2CCN(S(=O)(=O)c3ccc4c(c3)NC(=O)CC(=O)N4)CC2)cc1 | 0.3 | 2.5 | -1.5 | -17 | 0.68 | i | 39
CC(=O)Nc1nn(C)c2nc3ccc(C)cc3cc12 | 5.4 | nt | 5.4 | 2 | nt | i | -20
CCOC(=O)[C@H]1[C@H]2COc3ccccc3[C@@H]2N2C(=O)c3cc(OC)c(OC)cc3NC(=O)[C@@]12C | -0.5 | 0.6 | 1.0 | 0 | nt | i | nt

Other structures follow.
HNF4A DNA FP,UCH37 inh,LANA-H2A inh,B2AR ag,Ecoli growth,FGF22 binding,ALR inh,molecule
-3.5,6.1,-0.6,-8,0.72,nt,nt,O=C(CN(CCCN1CCOCC1)C(=O)Cn1nnc(-c2ccc(F)cc2)n1)NC1CCCCC1
-0.6,4.8,-4.8,6,0.67,i,-42,O=[N+]([O-])C(/C=C(/Cl)[N+](=O)[O-])=C(N1CCCCC1)N1CCCCC1
-2.3,6.0,-8.6,9,0.68,i,7,O=C(Nc1ccccc1)c1ccccc1CSc1ccccc1
-2.2,2.4,-4.4,-18,0.71,nt,-9,CC(NC(=O)CN(C)S(=O)(=O)c1ccc(Br)s1)c1ccccc1 (centres undefined)
1.5,-0.5,7.1,5,0.66,nt,-3,CCOCc1nnc(NS(C)(=O)=O)s1
-0.8,-2.4,2.4,0,0.65,nt,37,O=C(CSc1nc2ccccc2o1)NCc1n[nH]c(=O)c2ccccc12
-0.6,4.7,-4.2,-2,0.67,i,0,NCCCNC(=O)Cn1c(=O)c2c3c(sc2n(Cc2ccccc2)c1=O)CCCC3
-0.6,-1.9,-1.2,1,0.71,i,nt,O=C(COc1ccc(OCc2ccccc2)cc1)NN=C1CCCC1
2.7,4.5,3.3,-12,0.69,i,-16,Fc1cccc(Cl)c1CNCCCSc1ncccn1
-0.9,3.3,-1.4,8,0.73,i,2,Cn1cccc1CNCc1ccc(F)cc1
2.8,nt,-5.0,6,nt,i,96*,COc1ccc(N/N=C(/C(C)=O)N2CCCc3ccccc32)cc1
2.9,4.0,1.5,4,0.67,i,-7,N/C(=N\OC(=O)CC1CCCCC1)c1cccnc1
-0.8,-0.2,17*,-3,0.73,nt,-9,CC(=O)N1CCC(N2CCN(c3ccccc3F)CC2)CC1
1.6,0.4,2.9,-30,0.63,i,19,CCCNC(=S)N1CCC(NC(=O)c2ccc(C)cc2)CC1
6.6,-5.0,-1.4,13,0.66,i,nt,COc1ccc(C(CCN2CCCC2)c2c(OC)cc(OC)c3c(-c4ccccc4)cc(=O)oc23)cc1 (centres undefined)
1.9,5.4,7.8,-17,0.66,nt,-5,Cc1c(C(=O)OCC(C)(C)CN(C)C)oc2ccccc12
-1.3,nt,-9.3,-10,nt,nt,-7,CCN(CC(=O)Nc1ccc(NC(C)=O)cc1)C(=O)c1ccc(NC2CC2)c([N+](=O)[O-])c1
0.0,0.2,1.8,-29,0.64,i,nt,CCN(CC(=O)Nc1ccc(Br)cc1)C(=O)c1nc2nc(C)cc(C)n2n1
1.8,6.8,-1.1,18,0.64,nt,-8,COc1ccc(C2=Nc3cccc4cccc(c34)N2)cc1
-0.7,-1.0,1.3,2,0.69,i,1,CCOC(=O)c1ccc(N2C(=O)CC(C)(CC)CC2=O)cc1
-1.9,3.6,7.0,-1,0.7,i,-4,O=C(Nc1c2c(nn1-c1ccccc1)CS(=O)(=O)C2)c1ccco1
3.0,-0.6,0.7,2,0.66,i,nt,CCN(C[C@H]1N[C@@](CC)(C(=O)OC)[C@H]2C(=O)N(C)C(=O)[C@@H]12)S(=O)(=O)c1ccc(F)cc1
2.3,2.6,nt,4,0.71,nt,nt,CCOc1cccc(-c2nnc(SCC(=O)Nc3cccc(OC)c3)n2N)c1
-0.6,-0.8,-2.9,-6,nt,i,-2,C/C=C\C=C/C(=O)Nc1cccc(C2=NOC3(C2)C[C@@H](C(N)=O)N(C(=O)CCCCC)C3)c1 (some centres undefined)
-0.7,-0.3,+,-2,0.65,i,24,Cc1cccc(Oc2ccccc2NC(=O)C2=COCCO2)c1
-1.3,0.3,0.4,-1,0.72,nt,-15,COC(=O)c1ccc(CSc2nc3cc(Cl)ccc3s2)o1
0.8,2.5,0.4,2,0.66,i,-2,CC(=O)NCCc1nc2cc(NC(=O)Nc3ccccc3)ccc2n1C
-2.2,0.3,-0.1,7,0.7,nt,-1,O=C(O)CCC1=C2c3ccccc3CCN2C(=O)CC1
2.8,1.7,-4.9,11,0.74,nt,-16,COc1c(F)c(F)c(C(=O)Nc2ccc(N3CCN(Cc4ccccc4)CC3)cc2)c(F)c1F
0.9,2.3,0.4,-1,0.67,i,-5,Clc1c2c(nc3ccccc13)CCC2
-1.7,nt,0.6,-32,nt,i,-15,COc1ccc(CNC(=O)c2ccc[nH]2)cc1
3.6,-1.3,1.6,-6,0.7,i,-1,O=[N+]([O-])c1cccc(S(=O)(=O)c2cccc([N+](=O)[O-])c2)c1
0.7,5.8,7.5,0,0.7,i,2,COc1ccc(C(=O)NCC(=O)OCc2nc(N)nc(Nc3ccccc3C)n2)cc1
-2.7,0.0,-3.0,8,0.72,i,-3,COC(=O)C(CC(C)C)NC(=O)c1cccs1 (centres undefined)
-0.1,nt,4.5,-2,nt,i,-5,O=C(CC1S/C(=N/N=C/c2ccco2)NC1=O)Nc1ccccc1 (centres undefined)
nt,7.1,-0.8,nt,0.75,nt,11,O=C(CSc1nnc(SCc2cccc3ccccc23)s1)N=Nc1c(O)[nH]c2ccccc12
0.6,1.2,-2.4,3,0.67,i,-1,Cc1cc(Br)ccc1OCCN1CC(C)OC(C)C1 (centres undefined)
0.9,0.2,1.3,-4,0.68,+,-7,COc1nc(-c2ccc(Cl)cc2)nnc1C
-0.8,5.7,2.0,8,0.64,i,nt,Clc1ccc(CN2CCC(Cc3ccccc3)CC2)cc1
6.0,nt,8.3,2,nt,nt,nt,Clc1ccc(SCCN2CCNCC2)cc1
-0.3,0.5,nt,-3,0.65,nt,nt,COC(=O)c1ccc(C)c(NC(=O)CCNC(=O)c2ccc([N+](=O)[O-])cc2)c1
1.8,-0.2,-7.0,7,0.69,nt,0,COC(=O)c1cccc(NC(=O)CN(c2ccc3c(c2)OCO3)S(C)(=O)=O)c1C
-8.1,-3.8,-15,-2,0.68,nt,-6,COc1ccc(NC(=O)COC(=O)c2cc3c(s2)CCC3)cc1
2.1,0.9,4.0,0,0.64,i,-7,COc1ccccc1C(=O)NNC(=O)C12CC3CC(CC(C3)C1)C2
1.5,-0.6,7.2,1,0.71,i,0,CC1CCN(c2ccc(NC(=O)c3ccccc3[N+](=O)[O-])cc2)CC1
4.2,1.0,2.5,-1,0.72,nt,-7,CCc1ccc(OCC2c3cc(OC)c(OC)cc3CCN2C(C)=O)cc1 (centres undefined)
2.5,-15,6.2,7,0.68,i,?,Cc1c(CC(=O)O)c(=O)oc2c(C)c3occ(-c4ccccc4)c3cc12
3.7,2.2,-1.5,15,0.71,i,-7,CCOC(=O)N1CCN(C(=O)c2ccc3c(c2)NC(=O)/C(=C\c2ccc(OC)c(OC)c2)S3)CC1
2.0,-0.2,nt,-3,0.72,nt,nt,COc1ccccc1N1CCN(C(=O)c2oc3ccccc3c2C)CC1
5.8,-9.4,8.2,-74,0.69,i,-2,CCN(CC)C(=O)c1sc2nc(-c3cccs3)cc(-c3cccs3)c2c1N
0.1,3.8,-1.4,5,0.69,i,-3,CCCCOC(=O)c1ccc(NC(=O)c2ocnc2C)cc1
2.2,-13,1.9,5,0.68,nt,0,O=C(Nc1ccc2oc(-c3ccncc3)nc2c1)c1cccs1
-0.2,1.9,-3.4,4,0.75,nt,5,O=S(=O)(Nc1ccc(F)cc1)N1CCCCCC1
1.8,4.2,-4.8,-2,0.75,nt,-16,COc1ccccc1CNC(=O)CCCn1c(=O)c2ccccc2n(CC(=O)NC2CCCC2)c1=O
1.3,-0.8,-0.3,3,nt,i,1,COC(=O)[C@]1(CC(C)C)N[C@H](c2ccc(-c3ccc(OC)cc3)cc2)[C@@H]2C(=O)N(C)C(=O)[C@@H]21
0.6,-1.3,nt,9,0.71,i,nt,CCOc1ccc(OCCC(=O)Nc2cccc(S(=O)(=O)N3CCCC3)c2)cc1
-0.4,-1.5,-0.9,-2,0.69,i,-4,CC(C)CN(C1CCS(=O)(=O)C1)S(=O)(=O)c1ccc2ccccc2c1 (centres undefined)
3.2,4.0,4.2,15,0.63,i,5,COC(=O)c1ccc(NC(=S)NN2CCCCC2c2cccnc2)cc1 (centres undefined)
-2.7,nt,-1.4,3,nt,i,27,Cc1csc(N/N=C/c2c(F)cccc2Cl)n1
3.5,5.0,1.5,1,0.69,nt,26,CCOc1ccc2nc(NC(=S)N(C)C)sc2c1

Full records as entered above. Order of screens: HNF4A DNA FP	UCH37 inh	LANA-H2A inh	B2AR ag	Ecoli growth	FGF22 binding	ALR inh
O=S(=O)(Nc1ccc(F)cc1)N1CCCCCC1 is listed with -0.2	1.9	-3.4	4	0.75	nt	5
CCCCOC(=O)c1ccc(NC(=O)c2ocnc2C)cc1 is listed with 0.1	3.8	-1.4	5	0.69	i	-3

Next results follow:
HNF4A DNA FP,UCH37 inh,LANA-H2A inh,B2AR ag,Ecoli growth,FGF22 binding,ALR inh,molecule
-1.5,3.7,-2.5,0,0.67,i,-5,Cc1ccc(OCCNC(=O)CCNC(=O)c2ccc(Cl)cc2)cc1
-0.5,5.8,5.2,4,0.79,nt,1,O=P(CO)(Cc1ccccc1)Cc1ccccc1
3.5,2.5,2.3,3,nt,i,4,COc1cccc([C@@H]2CC=C(C(=O)O)[C@H](c3cccc(Cl)c3)N2S(=O)(=O)c2ccc(C)cc2)c1
0.3,1.1,-6.8,-6,0.68,nt,-3,Nc1nc(CSCCO)nc(Nc2ccc(F)cc2)n1
4.1,5.3,0.2,0,nt,nt,nt,C[N+](C)(C)CCOP(=O)(O)OP(=O)([O-])OC[C@H]1O[C@@H](n2ccc(N)nc2=O)[C@H](O)[C@@H]1O
1.8,4.1,-3.5,-8,0.72,i,-7,Cc1cccc(C)c1OCc1cc(C(=O)NCC2COCCO2)no1 (centres undefined)
3.0,4.4,0.7,-13,0.66,i,nt,Cn1c(NC(=O)c2ccccc2)nc2ccccc21

Screens: PubChem, several laboratories
